# FGF22 binding – binders of human FGF22 protein, primary screen, FGF22 synaptogenesis inhibitor project, biophysical, thermal shift, single point. recombinant FGF22 thermal shift, SYPRO orange fluorescence; percent of sucrose octasulfate shift, DMSO zero. AID 651658, 2012. calls only at 9.99 µM. 340,000 compounds, 1.5% hits. Fibroblast growth factor 22 (Homo sapiens), Q9HCT0;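 active = melting point raised past a set limit in the mean and every replicate; inconclusive = no clear call; three in four hits are not shown here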
# Target sequence (Q9HCT0 whole entry, looked up): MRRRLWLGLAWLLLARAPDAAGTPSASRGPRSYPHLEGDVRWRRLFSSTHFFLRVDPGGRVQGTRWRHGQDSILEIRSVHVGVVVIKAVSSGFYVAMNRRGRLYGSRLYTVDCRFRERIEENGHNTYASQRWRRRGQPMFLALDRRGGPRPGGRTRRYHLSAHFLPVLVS
# Calb FLC – C. albicans growth inhibition with fluconazole, primary screen, CaCi-2 strain, Alamar Blue fluorescence. 300,000 compounds, 0.57% hits. growth inhibition, % (no concentration beside the values). C. albicans CaCi-2 (fluconazole-resistant clinical isolate) + fluconazole, 48 h;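 active = most replicates above 75%; inconclusive = exactly half above 75%; inactive = most below 75%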;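 note: all wells also contain fluconazole at 8 µg/ml as a sub-toxic cotreatment; 0% = median of DMSO wells and 100% = median of geldanamycin control wells; wells of about 8 µL received 7.5 nL stock; the first replicate is given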
# T cruzi repl – inhibitors of intracellular T. cruzi growth, primary screen, luminescence, NIH3T3 host cells | T. cruzi beta-gal in NIH3T3, 90 h | inhibition, % (no concentration beside the values) | 300,000 compounds, 1.4% hits | AID 1885, 2009;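 active = mean inhibition across valid replicates above about 55%, limit read from the data; inconclusive = mean below that limit but half or more replicates reach it; inactive = mean below it, under half of replicates reach it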;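 note: signal also drops with host cell toxicity which is not excluded here; 0% = plate median of DMSO wells and 100% = zero luminescence signal; higher percent means less beta-gal luminescence so fewer parasites; stock transfer was 50 nL into about 50 µL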
# Beta apoptosis – inhibitors of cytokine-induced beta cell apoptosis, primary screen, luminescence; 300,000 compounds, 0.8% hits; protection from apoptosis, % (no concentration beside the values); AID 435005, 2010; INS-1E cytokine-induced death, ATP luminescence, 48 h; percent of positive-control rescue, neutral wells zero;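 active = all replicates at 75% or more, or half of them and the mean; inconclusive = half reach 75% but not the mean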;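 note: 0% = cytokine-treated negative control wells and 100% = positive control rescue; higher means more ATP so stronger rescue from cytokine killing; wells of about 40 µL received 100 nL stock; the first replicate is given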
# AF4-AF9 inh – inhibitors of AF4 peptide binding to AF9, primary screen, biochemical, AlphaScreen, biotin-AF4 peptide, FLAG-AF9, single point | 350,000 compounds, 0.47% hits | Protein AF-9 (Homo sapiens), P42568 | inhibition, % at 10 µM;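 active = every replicate reaching a set inhibition limit, whatever the replicate mean, cut at about 25% in these data; inconclusive = mean inhibition reaches that limit but some replicates miss it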;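 note: 0% = plate neutral control median and 100% = total signal loss; the record names both 10 and 1 µM as test concentration; the first replicate is given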
# Target sequence (P42568 whole entry, looked up): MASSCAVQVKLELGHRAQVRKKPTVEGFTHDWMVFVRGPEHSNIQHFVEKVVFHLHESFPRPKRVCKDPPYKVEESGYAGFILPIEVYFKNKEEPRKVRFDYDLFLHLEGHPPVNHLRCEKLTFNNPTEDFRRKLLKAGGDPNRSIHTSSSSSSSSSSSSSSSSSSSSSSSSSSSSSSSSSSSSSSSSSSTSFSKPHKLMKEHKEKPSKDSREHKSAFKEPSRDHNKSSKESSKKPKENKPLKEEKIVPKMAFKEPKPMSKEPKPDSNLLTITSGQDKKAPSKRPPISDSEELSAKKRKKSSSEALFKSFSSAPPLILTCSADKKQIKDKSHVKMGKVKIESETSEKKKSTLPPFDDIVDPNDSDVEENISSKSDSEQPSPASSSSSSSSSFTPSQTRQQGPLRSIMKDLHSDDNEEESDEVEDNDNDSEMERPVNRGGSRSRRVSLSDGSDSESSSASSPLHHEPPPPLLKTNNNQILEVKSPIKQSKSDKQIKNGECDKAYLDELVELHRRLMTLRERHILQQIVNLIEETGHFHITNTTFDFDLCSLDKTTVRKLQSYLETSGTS
# ALR inh – inhibitors of human ALR sulfhydryl oxidase, primary screen, biochemical, H2O2 detection, HRP-luminol luminescence, single point. purified ALR, DTT oxidation. inhibition, % (no concentration beside the values). 290,000 compounds, 3.8% hits;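 active = mean and each replicate at 75% or more; inconclusive = only one of the two met; inactive = neither met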;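 note: stock transfer was 7.5 nL into about 7.5 µL; 0% = neutral wells and 100% = wells with inactivated enzyme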
# Target sequence (P55789 whole entry, looked up): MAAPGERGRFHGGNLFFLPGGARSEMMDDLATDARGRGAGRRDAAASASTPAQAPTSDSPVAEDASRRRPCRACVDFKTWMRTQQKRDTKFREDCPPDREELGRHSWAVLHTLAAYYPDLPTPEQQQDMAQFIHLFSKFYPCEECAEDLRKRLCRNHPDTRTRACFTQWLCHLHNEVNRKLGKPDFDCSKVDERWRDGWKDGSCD
# RanGTP-Impb inh – inhibitors of RanGTP-importin-beta interaction, primary screen, biochemical, FRET, CFP-Ran, YFP-importin-beta, homogeneous; AID 2216, 2009; cell-free CFP-Ran/YFP-importin-beta FRET ratio; inhibition, % (no concentration beside the values); 300,000 compounds, 1.1% hits; Ran GTPase (GTP-bound) - importin-beta complex;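 active = most replicates above 15%; inconclusive = exactly half above 15%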;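 note: 0% = DMSO wells and 100% = Ran loaded with GDP instead of GTP; wells of about 40 µL received 100 nL stock; the first replicate is given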
# rRNA inh HTS – reduced GFP signal of wild-type E. coli, primary screen, bacterial rRNA inhibitor project, GFP/RFP fluorescence, OD600, single point. GFP signal change (wild-type ribosome), % (no concentration beside the values). 350,000 compounds, 1.6% hits. E. coli WT GFP vs humanized-ribosome RFP mutants, 24 h; active compounds read low; DMSO median 0, no signal -100;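 active = significant combined selectivity score with lowered wild-type GFP, culture density cut under 30%, mutant RFP and density less affected; inactive = any of these conditions unmet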; note: one replicate is shown; some compounds called inactive have numbers as strong as hits
# rRNA inh HTS OD600 – recorded beside rRNA inh HTS, whose call it bears; OD600 change, %; measured here: OD600 growth;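 optical density of the mix in the first replicate; 0 = DMSO median and -100 = no signal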
# rRNA inh HTS RFP – second read-out of rRNA inh HTS, no call of its own (marks repeat the call); RFP signal change, %; measured here: RFP humanized mutant strains;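 first replicate; 0 = DMSO median and -100 = no signal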
# Active calls of the source: *; i = inactive; ? = inconclusive; nt = not tested or not shown. The list is partial. The share of hits here may be higher or lower than overall.
SMILES,ALR inh,Calb FLC,rRNA inh HTS RFP,RanGTP-Impb inh,T cruzi repl,FGF22 binding,rRNA inh HTS OD600,AF4-AF9 inh,Beta apoptosis,rRNA inh HTS
OC(CNC1Cc2ccccc2C1)c1ccccc1 (centres undefined),-3,-5,nt,0.7,28,nt,nt,nt,-6,nt
CCOC(=O)c1cnc2c(OC)cccc2c1N1CCN(c2ccccn2)CC1,-12,25,2.3,-1.9,22,i,-23,-4.4,8,-16
COc1ccc(C2CC(c3ccc(Br)cc3)=NN2C(=O)CSC2=NCCS2)cc1 (centres undefined),33,0,3.6,5.7,48,i,-4,1.9,-4,6
O=C(NCc1ccco1)c1ccc2c(c1)CCO2,3,1,1.7,-2.1,-10,i,10,nt,-7,13
CC(C)N(CCn1c(SCC(=O)N2CC(=O)Nc3ccccc32)nc2ccccc2c1=O)C(C)C,-15,?,-7.7,-2.0,69*,i,13,1.4,-3,13
CC(=O)c1cccc(NC(=S)NNC(=O)c2ccc(C)c([N+](=O)[O-])c2)c1,63,7,-2.6,1.0,1,i,1,-2.8,11,0
O=C(Nc1ccc(F)c(F)c1)NC1CCCCC1,70,9,nt,-1.1,2,nt,nt,nt,-2,nt
Cc1ccnc(SCC(=O)Nc2sc3c(c2C#N)CCC(C(C)(C)C)C3)n1 (centres undefined),-1,-3,nt,9.0,37,nt,nt,nt,7,nt
CCC1C(=O)N(c2nc(C)cc(C)n2)N=C1C (centres undefined),2,-8,nt,-3.0,-7,nt,nt,nt,-9,nt
Cc1ccc(-n2ncc3c(=O)n(Cc4ccccn4)cnc32)cc1C,nt,2,nt,-1.1,2,nt,nt,nt,2,nt
Cc1nc2ccccn2c1C(=O)C(=O)Nc1cc(F)ccc1F,37,-3,1.7,12,6,nt,12,0.0,-8,13
CCOC(=O)c1c(C)[nH]c(C(=O)COC(=O)/C=C/c2ccc(O)c(OC)c2)c1C,23,41,nt,-3.5,2,nt,nt,nt,1,nt
FC(F)(F)C1CCCN(c2nsc3ccccc23)C1 (centres undefined),21,-4,nt,4.8,-2,nt,nt,nt,-23,nt
COc1cc(/C=C(\C#N)c2nnc(N3CCOCC3)n2-c2ccccc2)ccc1O,99*,5,-0.2,2.7,-5,i,2,0.5,12,5
CCN(CC)CCn1c(/N=C/c2cc(Br)ccc2O)nc2ccccc21,20,0,nt,2.0,17,nt,nt,nt,11,nt
CCOc1ccccc1OCC(=O)Nc1ccc(N2CCCCC2)cc1,4,9,nt,?,46,nt,nt,nt,2,nt
Cc1ccc2nc(Br)c3c(c2c1)OC(CBr)C3 (centres undefined),-20,1,-11,-2.4,6,i,-77,4.5,0,-49
COc1ccc(OC)c(NC(=O)CSc2nnc(NC(=O)c3ccco3)s2)c1,0,14,-0.9,1.5,11,i,-9,-2.2,0,3
Cc1nnsc1C(=O)Nc1cc(Cl)ccc1Cl,-4,?,nt,-0.9,-23,nt,nt,nt,3,nt
CCOC(=O)CN(C(=O)CNC(=O)c1cccs1)C(C(=O)NC1CCCC1)c1ccncc1 (centres undefined),-1,-13,-0.3,-1.3,-13,i,19,-0.5,-5,9
CCOc1ccc(S(=O)(=O)/N=C(\N)c2ccccc2)cc1,-1,2,0.8,7.7,10,i,4,-0.3,2,7
O=C(Nc1ccncc1)c1ccc2ccccc2c1,-3,18,3.0,-0.8,12,i,2,0.8,-4,10
Cc1nn(S(=O)(=O)c2cccc([N+](=O)[O-])c2)c(C)c1Br,-1,13,-2.5,nt,49,i,12,4.9,-3,7
CCOC(=O)c1cnn(-c2cc(C)cc(C)c2)c1N,28,-4,-16,1.6,-8,i,-14,0.1,0,-2
Cc1cccc(N(CC(=O)NC(C)(C)C)C(=O)CCC(=O)Nc2ccccn2)c1,nt,1,1.4,?,2,i,9,-0.7,0,12
COc1ccc(C(=O)C2CCCN(Cc3cccn3-c3ccccn3)C2)c(C)c1 (centres undefined),3,110*,0.7,-2.8,37,nt,-23,11,21,-15
CC(CNC(=O)C(=O)NC(C)CCc1ccccc1)Cc1ccccc1 (centres undefined),-7,-6,-2.1,2.0,4,i,8,-1.5,9,9
CNc1cnn(-c2ccc(C)cc2)c(=O)c1Cl,5,-3,nt,3.0,-5,nt,nt,nt,-6,nt
Cc1ccc(CN2CCN(Cc3ccc4cc(F)ccc4n3)CC2CCO)o1 (centres undefined),-9,-4,-1.4,-0.9,4,i,-5,?,-7,9
CCCn1c(=O)n(C)c(=O)c2c(SCc3cc(C(C)=O)ccc3OCC)nc(C3CC3)nc21,nt,10,nt,6.9,38,nt,nt,nt,14,nt
COc1ccc(OC)c(S(=O)(=O)N2CCC(C(=O)N3CCOCC3)CC2)c1,-12,24,-3.4,-0.9,6,i,4,-2.3,-13,3
CC(=O)Nc1ccc(S(=O)(=O)NCCC(=O)OCc2ccccc2F)cc1,2,nt,nt,nt,nt,i,nt,1.3,-3,nt
NC(=O)NCCCC(=O)O,-8,nt,nt,nt,nt,i,nt,0.9,-10,nt
O=C(COc1ccc(Cl)cc1)N1CCN(S(=O)(=O)c2ccccc2)CC1,-2,-8,nt,-0.1,2,nt,nt,nt,6,nt
CC(C)(C)NC(=O)CN1CCC(O)(c2ccccc2)CC1,nt,-2,-0.7,-3.5,-1,i,-4,-37,-3,12
CCC(CO)Oc1cc(NC(=O)c2cccc(F)c2)c2ncn(C(C)C)c2c1 (centres undefined),-33,nt,-2.6,nt,nt,i,2,0.7,0,-1
CCN(CCCNC(=O)COc1cc(=O)n(CC)c2ccccc12)c1ccccc1,99*,-20,nt,0.5,47,nt,nt,nt,-3,nt
COc1ccc(N(CC(=O)Nc2cccc(C)c2C)S(=O)(=O)c2c(C)n[nH]c2C)cc1,-9,-10,nt,0.0,-6,nt,nt,nt,-8,nt
CCc1nnc(NC(=O)CSc2nnc(C)n2-c2ccc(C)cc2)s1,nt,-6,nt,-0.1,1,nt,nt,nt,-3,nt
O=C(COC(=O)/C=C/c1ccccc1Cl)NCC1CCCO1 (centres undefined),24,nt,-1.4,nt,nt,nt,-11,-1.0,-5,-3
O=C(NNC(=O)c1sccc1-n1cccc1)Nc1ccc(F)cc1,31,-21,3.2,1.8,-2,i,-7,-0.1,-2,-2
CC1=C(C(=O)OC2CCCCC2)C(c2ccccc2Br)NC(=O)N1 (centres undefined),-1,23,-0.3,-2.5,-7,i,0,-2.7,-4,-2
O=C(c1ccccc1Cl)N1CCc2ccccc2C1,-7,5,0.6,1.5,-1,nt,-4,nt,0,-1
Cc1ccc(NC(=O)Cn2nc(C)c3ccccc3c2=O)cc1F,-5,?,nt,-2.0,1,nt,nt,nt,-1,nt
CCOC(=O)c1oc2nc(C)c3c(c2c1N)CC(C)(C)OC3,nt,-3,nt,?,5,nt,nt,nt,3,nt
COc1ccc(-c2c(C)oc3c(CN4CCCCC4C)c(O)ccc3c2=O)cc1OC (centres undefined),-2,2,-3.2,14,2,i,7,-2.5,0,2
CCCn1c(N)c(Sc2ccc([N+](=O)[O-])cc2)c(=O)n(CCC)c1=O,-7,?,-3.7,2.1,-7,i,-2,-0.5,-6,10
COc1ccc(/C=N/NC(=O)CCc2ccccc2)cc1O,-6,55,nt,6.0,-19,nt,nt,nt,1,nt
O=C(NC1CCCc2ccccc21)C12CC3CC(CC(O)(C3)C1)C2 (centres undefined),-19,-20,0.7,0.3,-7,i,0,0.3,1,4
O=C(COC(=O)COc1ccc(Cl)cc1Br)NC1CCCCCC1,-1,nt,-1.3,nt,nt,i,14,-3.1,0,15
CC(=O)c1ccc(NC(=S)N2CCN(c3ccccn3)CC2)cc1,-4,0,-2.3,4.2,4,i,-4,-0.5,-3,0
CC(=O)Nc1ccc(S(=O)(=O)N(C)CC(=O)Nc2ccccc2N2CCCC2)cc1,99*,nt,0.7,-1.2,6,i,-4,-0.7,1,-9
O=C(COC(=O)CC1CC2CCC1C2)Nc1c(F)cccc1F (centres undefined),-5,-4,1.7,-2.0,-1,i,-13,0.3,0,-8
O=S(=O)(Cc1ccc(Cl)cc1)C1CCCCC1O (centres undefined),-5,-4,8.4,0.5,-7,i,7,-1.1,-8,7
COc1ccc(-c2nnc(COc3ccc(Br)cc3C)o2)cc1,-10,-24,2.1*,0.5,nt,i,-8.6*,-1.1,-4,-19*
O=C1NC(=S)S/C1=C\c1coc2ccc(O)cc2c1=O,31,-12,-1.1,-0.6,5,i,-6,8.0,2,-7
O=C(CN1c2cccc3cccc(c23)S1(=O)=O)NCc1ccc2c(c1)OCO2,-20,-35,6.1,4.6,20,i,-1,13,-5,-14
O=C(Nc1ccc(Cl)cn1)c1ccc2ccccc2n1,-4,6,nt,-4.6,6,nt,nt,nt,-1,nt
Cc1ccc(C(=O)NCC(=O)NCCCc2ccccc2)cc1,-3,4,3.5,1.5,0,i,5,-0.7,1,2
CCc1cc(=O)oc2cc(OC(C)=O)cc(OC(C)=O)c12,32,13,nt,6.1,-9,nt,nt,nt,-6,nt

# (more compounds)
SMILES,ALR inh,Calb FLC,rRNA inh HTS RFP,RanGTP-Impb inh,T cruzi repl,FGF22 binding,rRNA inh HTS OD600,AF4-AF9 inh,Beta apoptosis,rRNA inh HTS
CSCC[C@H](NC(=O)[C@@H]1Cc2ccccc2CN1)C(=O)Nc1ccc2c(c1)OCO2,-14,nt,-1.4,-0.5,25,i,4,-2.3,0,-1
Cc1cc(C)nc(N2CCCC(C(=O)NCc3cccs3)C2)n1 (centres undefined),-2,5,-3.1,0.9,2,i,9,0.0,-18,6
Cc1ccc(C)c(NC(=O)/C(C#N)=C/c2ccc(Sc3nncn3C)c([N+](=O)[O-])c2)c1,-3,-17,nt,nt,3,nt,nt,nt,-13,nt
Cc1ccc2c(c1)N(C(C)C(=O)NCCc1ccccc1)C(=O)CO2 (centres undefined),-4,-19,2.8,?,0,nt,-8,nt,-2,-6
CCN(CC(=O)Nc1ccccc1OC)C(=O)c1ccc2[nH]c3c(c2c1)CC(C)CC3 (centres undefined),-1,nt,7.0,nt,nt,i,-23,7.4,1,9
O=C(c1cccc(C(F)(F)F)c1)N1CCc2c([nH]c3ccccc23)C1C(F)(F)F (centres undefined),nt,23,-2.5,-0.6,13,i,5,-0.5,2,1
CCOC(=O)c1c(S(=O)(=O)NCC(=O)Nc2ccccc2F)c(C)n(C)c1C,-4,-2,1.8,2.9,9,i,5,0.7,3,1
